CtBP-E1A inh – inhibitors of CtBP/E1A interaction; AlphaScreen GST-E1A/His-CtBP binding, 1536-well; stronger effect = lower value; control for the full effect not named in the record; activity change, % (concentration not given with the values); 340,000 tested, 0.49% active; AID 651724; in the data active means activity change below about -65%; inconclusive means about -30% to -65%; inactive means above about -30%; further: on the % scale 0 is the no-effect control and ±100 the full control effect
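GST-E1A and His-tagged CtBP (125 nM each as 5X stock) were preincubated with pin-transferred compound for 2 h at 37 °C in the dark, then glutathione donor and nickel acceptor beads were added for 1 h before AlphaScreen reading.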
Six1-Eya2 inh – Six1/Eya2 interaction inhibition. activity change, % (test concentration not listed). Q15475+O00167. AlphaScreen GST-Six1/His-Eya2 binding, biochemical; stronger effect = lower value; control for the full effect not named in the record. 360,000 tested, 0.56% active; in the data active = activity change below about -65%; inconclusive = about -30% to -65%; inactive = above about -30%; further: on the % scale 0 is the no-effect control and ±100 the full control effect; compound concentration not given in the record
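Six1/Eya2 binding was read as AlphaScreen signal after compounds were pinned into GST-Six1 plus His-tagged Eya2 (5X stock 250/500 nM) in pH 8.0 Tris/NaCl/TCEP buffer, beads added, then incubated 1 h, 37 C, dark.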
PINK1 modulator – modulators of PINK1 expression. PINK1 immunofluorescence, high-content cytometry, 24 h. AID 624263. 410,000 tested, 0.2% active. Potency, µM (titrated, usually from 76.6 µM), for inactives: top-dose activation (PINK1 increase), hits mostly activators; active = well fitted activation curve with a large enough effect; inconclusive = small, poorly fitted or top-dose-only effect; inactive = flat fitted curve, though single readings scatter; cell line not stated here;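 further: potency means the concentration at half of the fitted maximal effect; % of control where 0% means no effect; nearly all actives have a fitted effect of over 65% in size; a mitochondrial uncoupler was the plate control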
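Cells are seeded, rested 12 hours, then given compound at five concentrations or DMSO for 24 hours. After fixation, blocking and antibody staining, PINK1 amount and mitochondrial localization are scored; CCCP serves as control.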
TRPML1 blocker – human mucolipin-1 channel inhibition; Q9GZU1; TRPML1-inducible cells, Ca2+ dye fluorescence, FDSS; stronger effect = lower value; inhibition of EC80 agonist-evoked calcium signal; 390,000 tested, 0.02% active; AID 624415; activity change, negative = inhibition, % (no concentration beside the values); in the data active means activity change below about -50%; inconclusive means about -30% to -50%; inactive means above about -30%;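 further: stimulus is agonist 54-4 at its EC80 concentration; on the % scale 0 is the no-effect control and ±100 the full control effect; compound concentration not given in the record; the text of the record puts the active cut at -80%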
Target sequence (Q9GZU1 whole entry, looked up): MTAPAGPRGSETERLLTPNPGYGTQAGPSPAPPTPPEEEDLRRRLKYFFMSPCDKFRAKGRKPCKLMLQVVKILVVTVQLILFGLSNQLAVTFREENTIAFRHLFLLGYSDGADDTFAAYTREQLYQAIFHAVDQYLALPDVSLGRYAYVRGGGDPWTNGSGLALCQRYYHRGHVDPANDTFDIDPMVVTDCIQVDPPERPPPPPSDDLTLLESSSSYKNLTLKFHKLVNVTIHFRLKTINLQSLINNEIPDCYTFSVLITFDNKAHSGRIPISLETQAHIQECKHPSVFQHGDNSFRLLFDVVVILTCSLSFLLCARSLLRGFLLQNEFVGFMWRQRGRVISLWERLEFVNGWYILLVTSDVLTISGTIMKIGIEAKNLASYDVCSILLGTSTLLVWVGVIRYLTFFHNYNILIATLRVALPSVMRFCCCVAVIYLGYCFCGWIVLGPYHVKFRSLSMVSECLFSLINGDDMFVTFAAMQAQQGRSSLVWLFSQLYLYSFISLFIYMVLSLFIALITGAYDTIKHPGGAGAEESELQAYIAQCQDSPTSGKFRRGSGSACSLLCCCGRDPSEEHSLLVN
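TRPML1-DL cells, Tet-induced overnight (~16 h, 37 °C) at 1,500 cells/well, were loaded with Ca8 no-wash dye plus quencher for 45-90 min at room temperature. Compounds were pinned during FDSS kinetic reading; agonist 54-4 at EC80 (4 uM final) then added.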
TRPML1 agonist – activates the human TRPML1 channel; TRPML1-expressing cells, Ca2+ dye fluorescence, FDSS; host cell line not named in the record; reference of the full effect not given here; activation, % (no concentration beside the values); AID 624414; Q9GZU1; 410,000 tested, 0.12% active; in the data active = activation above about 50%; inconclusive = about 30% to 50%; inactive = below about 30%; further: 0% is about no effect; the text of the record puts the active cut at 80%
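Cells: TRPML1-DL, 1X Tet inducer, ~16 h at 37 degrees C/5% CO2. Dye: ABD Ca8 no-wash + quencher, 45-90 min RT. Read: 10 s baseline, compound add, 110 s agonist phase; 54-4 EC80 (4uM final), 110 s antagonist phase.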
D2 ag – activates the human D2 dopamine receptor. P14416. DiscoveRx PathHunter D2 beta-arrestin, luminescence, 90 min; 100% = 57 uM dopamine signal. activation, % (test concentration not listed). 360,000 tested, 0.084% active; in the data active = activation above about 40%; inconclusive = about 15% to 40%; inactive = below about 15%; further: compound concentration not given in the record; the text of the record calls up to 30% inactive
Target sequence (P14416 whole entry, looked up): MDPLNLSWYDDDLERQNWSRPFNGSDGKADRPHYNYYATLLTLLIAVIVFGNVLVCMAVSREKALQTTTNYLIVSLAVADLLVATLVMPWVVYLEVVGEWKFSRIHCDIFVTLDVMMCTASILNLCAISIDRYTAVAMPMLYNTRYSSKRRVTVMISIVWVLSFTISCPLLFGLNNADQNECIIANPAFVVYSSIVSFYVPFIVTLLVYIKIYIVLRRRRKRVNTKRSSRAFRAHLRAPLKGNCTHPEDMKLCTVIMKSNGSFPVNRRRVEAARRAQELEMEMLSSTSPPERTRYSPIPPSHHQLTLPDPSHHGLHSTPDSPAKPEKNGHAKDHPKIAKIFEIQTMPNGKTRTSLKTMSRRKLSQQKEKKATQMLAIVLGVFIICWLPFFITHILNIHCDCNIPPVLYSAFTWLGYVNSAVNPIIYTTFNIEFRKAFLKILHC
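DiscoveRx PathHunter D2 beta-arrestin cells (2,100/well) attached overnight, then compound-stimulated 90 min at 37 C in HBSS/10 mM HEPES/0.1% Tween-20 buffer; beta-galactosidase complementation read by luminescence after 1 h at ambient temperature. Dopamine 57 uM final (EC100) as control.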
* hit, by the source's call; ? = inconclusive; . = no result given; & = joins results of further samples; [ ] = remark or other dose.

SMILES	CtBP-E1A inh	Six1-Eya2 inh	PINK1 modulator	TRPML1 blocker	TRPML1 agonist	D2 ag
CSc1ccc(/C=C(\NC(=O)c2ccco2)C(=O)N2CCCCC2)cc1	-1	11	3.5%	-8	0.6	1.0
COc1cccc(C(=O)N=c2sc3cc(S(C)(=O)=O)ccc3n2C)c1	0	4	15%	-1	-0.9	-3.8
O=C(/C=C/c1ccc(Cl)cc1Cl)NCc1ccco1	8	-3	-0.2%	-6	4.4	-0.8
O=C(CS(=O)(=O)c1ccccc1)Nc1cccnc1	3	8	0.4%	-11	0.4	-0.5
Cc1ccc(C)c(S(=O)(=O)N2CCN(C(=O)Cn3c(=O)cnc4ccccc43)CC2)c1	1	-6	-0.7%	-21	1.9	-0.5
O=C(Nc1ccc(N2CCCC2)c(Cl)c1)c1ccccc1[N+](=O)[O-]	1	5	0.3%	-1	2.3	-4.9
O=C(COC(=O)c1ccc(Br)o1)Nc1nc2ccccc2s1	-4	-1	-4.3%	2	0.2	-1.9
CSc1nc(=NC(C)=O)ss1	10	-12	0.4%	-9	-0.7	-2.9
CNC(=O)CSc1nc(N)c2c3c(sc2n1)CCC3	1	-4	0.7%[38.3 µM]	-14	1.2	-1.4
O=C(c1cnn2ccccc12)N1CCN(C2CCCCC2)CC1	-2	8	0.9%	33	0.4	-3.5
O=c1ccn([C@@H]2O[C@H](CNCc3ccc(-n4cccn4)cc3)[C@@H](O)[C@H]2O)c(=O)[nH]1	2	2	0.0%	21	-0.6	13
C/C(=N\NC(=O)c1ccccc1F)c1ccc(C#N)cc1	2	1	-3.1%	-1	1.1	0.3
O=C(CNC(=O)c1ccccc1Cl)c1ccccc1	8	11	-1.5%	-12	-0.3	-0.3
COc1ccc(-c2cn3c(n2)sc2cc(C(=O)NCc4ccccc4OC)ccc23)cc1	.	.	1.3%	3	0.1	.
COc1ccc(CCNC(=O)c2ccccc2OCc2c(C)noc2C)cc1	-6	2	-1.7%	18	1.5	1.3
CCn1c(COc2ccccc2OC)nnc1SCC#N	6	1	-1.7%	10	-0.8	-3.0
Cc1nnc(SCCC(C)C)[nH]c1=O	4	-1	0.1%	11	-0.3	-2.7
CCCCNC(=O)c1c(-c2ccccc2)c(-c2ccccc2)nn(C)c1=O	.	.	0.5%	19	2.0	.
Cc1cccc(C(=O)Oc2c(Sc3ccccc3)c(C)nn2C(C)(C)C)c1	.	.	19%	-8	0.6	.
CCN1CCN(c2ccc(S(=O)(=O)N3CCCCC3)cc2NC(=O)/C=C/c2cccc(OC)c2OC)CC1	-9	2	-0.2%	-8	-0.1	0.0
COc1ccc(S(=O)(=O)Nc2ccncc2)c(C)c1C	-6	4	1.9%	16	-1.3	-1.4
Clc1ccc2nc(-c3ccco3)c(Cc3ccccc3)n2c1	-26	?	1.0%	11	1.0	-5.6
Cc1ccc(Sc2ncccc2C(=O)O)c(C)c1	10	6	1.6%	-16	-0.3	-2.6
CCOC(=O)c1[nH]c2ccccc2c1NC(=O)COC	7	1	-0.1%	3	-0.6	-5.5
COc1ccc(-n2c(SCC(=O)Nc3ccc(NC(C)=O)cc3)nc3ccccc3c2=O)cc1	10	-1	4.5%	37	-0.1	-4.6
COc1ccc(C(=O)OCC(=O)NCCc2ccc(F)cc2)cc1S(=O)(=O)N1CCOCC1	-1	-1	3.9%	-9	0.9	0.3
Cc1nc2ncnn2c(C)c1CCC(=O)N1CCN(c2ccc(F)cc2)CC1	.	.	0.8%	-12	-0.8	.
O=C(N/N=C/c1ccc2nccnc2c1)c1cccc([N+](=O)[O-])c1	-9	1	13%	-3	-0.5	4.9
O=C(NCc1ccco1)C1CCCN1C(=O)Nc1ccccc1 (centres undefined)	-5	6	1.2%	-11	4.0	-19
COc1ccc2c(c1)c(=O)c(C(=O)c1ccccc1)cn2CC(=O)Nc1ccc2c(c1)OCCO2	.	.	1.5%	-19	-0.3	.
Fc1cccc(CSc2ccc(-c3ccco3)nn2)c1	-2	-6	-0.9%	-8	2.9	4.1
O=S(=O)(NCCc1nnc2ccc(SCc3ccc(Cl)cc3Cl)nn12)c1ccccc1	.	.	1.1%	0	-0.1	.
Fc1cccc(CCN2CCNC[C@@H]2c2ccccc2)c1	-12	-3	2.4%	-10	-0.1	-1.8
CCC(=O)N1CCN(c2ccc(Cl)cc2NC(=O)Cc2ccccc2)CC1	0	2	0.8%	3	-0.1	-3.1
Cc1ccc(C)c(N2N=C(C(=O)Nc3ccccc3N3CCOCC3)CCC2=O)c1	6	2	-0.9%	1	0.5	0.0
Cc1cc(OCc2cc(C(=O)N(C)C3CCOCC3)no2)cc(C)c1Cl	0	3	5.1%	17	1.2	-3.6
COc1cccc(/C=C/c2nc(C#N)c(N3CCCCCC3)o2)c1	.	.	-0.4%	0	-0.5	.
CC1CCN(S(=O)(=O)c2ccc3c(c2)oc(=O)n3CC(=O)N2CCCCC2)CC1	.	.	0.5%	-21	1.3	.
COc1ccc(C(=O)OCC(=O)NCc2ccc3c(c2)OCO3)cc1[N+](=O)[O-]	4	2	3.1%	11	0.7	-0.1
Cc1ccc(CCNC(=O)c2ccc(CS(=O)(=O)Cc3cccc(C)c3)o2)cc1	.	.	-0.7%	4	0.7	.
CCCCCOC(=O)C1=C(C)Nc2nnnn2C1c1ccc(OC)c(OC)c1OC (centres undefined)	-6	-2	-7.2%[38.3 µM]	-4	-0.1	4.1
COc1ccc(NC(=O)C2=CC(c3ccco3)=NS(=O)(=O)N2C)cc1	1	-4	0.4%&-1.0%	10&28	0.9&1.5	2.9
COc1ccc(S(=O)(=O)CC(=O)c2cc3cccc(C)c3oc2=O)cc1	.	6	8.8%	-13	1.1	-1.0
COc1ccccc1CNC(=O)CN1CCC(NC(=O)c2ccccc2F)CC1	5	3	-0.3%	-18	-0.7	-0.7
COc1ccc(C2=NOC(Cn3nc(-c4ccccc4C)cc3C(=O)O)C2)cc1 (centres undefined)	-23	4	1.7%	-11	0.2	-2.7
O=C1CCC([N+](=O)[O-])C(c2ccc(Cl)cc2Cl)N1 (centres undefined)	0	4	-3.5%	-11	0.8	-1.2
O=C(CSc1nc(C(F)(F)F)cc(=O)[nH]1)N1CCCCCC1	8	-3	3.0%	-4	-0.5	-4.3
Cc1cc(C(=O)CSc2nnc(-c3ccc(F)cc3)o2)c(C)n1CC1COc2ccccc2O1 (centres undefined)	-3	-3	4.9%	9	-0.9	-0.7
COc1cc2c(C#CCCCO)c(-c3ccc(C#N)cc3)oc(=O)c2cc1OC	0	3	6.7%	2	0.4	-3.6
O=C(CN1CCN(S(=O)(=O)c2cccc(Cl)c2)CC1)N1CCCCC1	3	-2	3.0%	3	0.2	-0.4

Ordered by heavy-atom count (rising): some entries from above
SMILES	CtBP-E1A inh	Six1-Eya2 inh	PINK1 modulator	TRPML1 blocker	TRPML1 agonist	D2 ag
O=C1CCC([N+](=O)[O-])C(c2ccc(Cl)cc2Cl)N1 (centres undefined)	0	4	-3.5%	-11	0.8	-1.2
O=C(CSc1nc(C(F)(F)F)cc(=O)[nH]1)N1CCCCCC1	8	-3	3.0%	-4	-0.5	-4.3
COc1ccc(NC(=O)C2=CC(c3ccco3)=NS(=O)(=O)N2C)cc1	1	-4	0.4%&-1.0%	10&28	0.9&1.5	2.9
COc1ccc(C2=NOC(Cn3nc(-c4ccccc4C)cc3C(=O)O)C2)cc1 (centres undefined)	-23	4	1.7%	-11	0.2	-2.7
CCCCCOC(=O)C1=C(C)Nc2nnnn2C1c1ccc(OC)c(OC)c1OC (centres undefined)	-6	-2	-7.2%[38.3 µM]	-4	-0.1	4.1

Three entries picked at random from those above, as already listed:
SMILES	CtBP-E1A inh	Six1-Eya2 inh	PINK1 modulator	TRPML1 blocker	TRPML1 agonist	D2 ag
COc1ccc(C2=NOC(Cn3nc(-c4ccccc4C)cc3C(=O)O)C2)cc1 (centres undefined)	-23	4	1.7%	-11	0.2	-2.7
O=C(CN1CCN(S(=O)(=O)c2cccc(Cl)c2)CC1)N1CCCCC1	3	-2	3.0%	3	0.2	-0.4
O=C(CSc1nc(C(F)(F)F)cc(=O)[nH]1)N1CCCCCC1	8	-3	3.0%	-4	-0.5	-4.3

Additional results:
SMILES	CtBP-E1A inh	Six1-Eya2 inh	PINK1 modulator	TRPML1 blocker	TRPML1 agonist	D2 ag
COc1ccc2nc(NC(=O)CSCc3c(C)noc3C)sc2c1	-8	-10	-0.1%	10	-0.4	-2.0
COc1cc(C(=O)Oc2cccc(/C=N/NC(=O)c3cc(C)[nH]n3)c2)cc(OC)c1OC	-12	-12	6.6%	34	2.4	2.6
CSc1cccc(NC(=S)N2CCCN(Cc3ccc(F)cc3)C2)c1	-8	-29	-0.8%	11	-0.3	0.0
CC(C)C(O)C1CCN(Cc2nc(Cc3ccccc3Cl)no2)CC1 (centres undefined)	.	10	0.8%	-10	-0.2	-7.9
COc1ccc(C)cc1S(=O)(=O)NC(C)c1cnn(-c2ccccn2)c1C (centres undefined)	6	0	-1.0%	32	0.1	-1.7
CCOC(=O)c1c(NC(C)=O)sc2c1CCC(C=O)=C2Sc1ccccc1	2	-9	-0.1%[38.3 µM]	4	4.8	-1.2
Cc1cc(NC(=O)COC(=O)c2nccnc2N)n(-c2ccccc2)n1	-18	-8	-2.8%	20	1.3	1.2
CCc1nn(CCCC(=O)NCc2ccccc2C)c(=O)c2cc3occc3n12	10	-1	0.3%	-20	-1.5	-2.1
O=C(O)c1ccc(Cn2cnc3c(=O)[nH]cnc32)cc1	-2	0	-1.8%	16	-0.1	1.9
O=C1CCC(C(=O)N2CCCCO2)CN1Cc1cccc(C(F)(F)F)c1 (centres undefined)	5	17	1.0%	3	11	1.5
CCOc1ccc(NS(=O)(=O)c2ccc3[nH]cc(C(=O)NCc4ccccc4)c(=O)c3c2)cc1	.	.	13%	-6	2.0	.
COc1ccc(-c2sc3ccc(-c4ccc5c(c4)OCO5)cc3c2-c2ccc(OC)nc2)cc1	3	-2	0.7%	3	-0.3	-3.1
C=C1c2nc3ccccc3n2C=C(c2ccc(C)cc2)N1c1ccccc1	-9	12	6.7%	19	1.5	11
Cc1cc(Cl)ccc1NC(=O)CN1C(=O)CSc2ccc(S(=O)(=O)N3CCOCC3)cc21	-2	3	-0.9%	0	-0.5	-6.5
CCS(=O)(=O)N1CCN(CC(=O)NC2CCCCC2)CC1	-9	0	-0.5%	5	2.1	-3.2
COc1cc(/C=C2/SC(=S)N(Cc3ccccc3)C2=O)cc(Cl)c1O	.	-1	7.9%	-3	65*	-1.6
COC(=O)c1[nH]c2ccccc2c1NC(=O)CN1CCN(C/C=C/c2ccccc2)CC1	2	-21	.	-1	-0.2	0.9
CC(C)CC(C(=O)NCC1CCN(Cc2ccc(F)cc2)CC1)N1Cc2ccccc2C1=O (centres undefined)	.	.	1.2%	-10	0.5	.
COCCn1c(-c2ccc(-c3ccc([N+](=O)[O-])cc3Br)o2)nc2c1c(=O)[nH]c(=O)n2CC(C)C	3	1	0.0%	-1	-0.3	7.6
CCCCn1c(CN2CCN(C(=O)OCC)CC2)nc2c1c(=O)[nH]c(=O)n2C	5	1	0.3%[38.3 µM]	12	0.0	-2.3
O=C(Cn1cc(C(=O)c2ccco2)c2ccccc21)Nc1ccccc1C(F)(F)F	.	.	5.0%	-9	-0.3	.
